# Screens (PubChem)
# Sfp inh = blocks B. subtilis Sfp PPTase activity; 310,000 tested, 3.5% active; Q9F4F7; AID 1490; Biochemical Sfp PPTase activity, qHTS; Potency, µM, for inactives: max response, negative = inhibition, usual class: inhibitors; active means well fitted inhibition curve with a large enough effect; inconclusive means small, poorly fitted or top-dose-only effect, or another doubt; inactive means no such curve, though single readings can be large or run the other way;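 further: the enzyme is Sfp with the accession as filed and its product quenches rhodamine fluorescence; potency means the concentration at half of the fitted maximal effect; 0% = enzyme reaction without inhibitor and -100% = no enzyme wells; top concentration of the series not given in the record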
#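 Fluorescence-quenching assay: 15 nM Sfp-PPTase preincubated 15 min at room temperature with compound, then 5 uM rhodamine-CoA and 12.5 uM BHQ-2-labelled YbbR peptide added. Fluorescence (ex 525/em 598 nm) read at start and after 30 min; difference gives rate.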
# TRPML1 agonist = agonists of human TRPML1 channel | Q9GZU1 | TRPML1-expressing cells, Ca2+ dye fluorescence, FDSS; host cell line not named in the record; reference of the full effect not given here | activation, % (test concentration not listed) | 410,000 tested, 0.12% active; in the data active = activation above about 50%; inconclusive = about 30% to 50%; inactive = below about 30%; further: 0% is about no effect; the text of the record puts the active cut at 80%
#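 Calcium fluorescence on an FDSS kinetic reader gave the read-out. Tet-induced TRPML1-DL cells were plated overnight, dye-loaded (Ca8 with quencher, 45-90 min, room temperature, dark), then read 110 s after compound addition, and again 110 s after 4uM final 54-4 (EC80).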
# PINK1 modulator = PINK1 expression modulation | PINK1 immunofluorescence, high-content cytometry, 24 h | Potency, µM (series often up to 76.6 µM), for inactives: at the highest dose activation (PINK1 increase), usual class: activators | 410,000 tested, 0.2% active | AID 624263; active = well fitted activation curve with a large enough effect; inconclusive = small, poorly fitted or top-dose-only effect; inactive = flat fitted curve, though single readings scatter; cell line not stated here;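 further: potency means the concentration at half of the fitted maximal effect; % of control where 0% means no effect; nearly all actives have a fitted effect of over 65% in size; a mitochondrial uncoupler was the plate control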
#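 Stable cell line treated 24 h with compounds at 5 concentrations (CCCP controls), then fixed and immunostained for PINK1 plus nuclear and cell stains; PINK1 immunofluorescence quantified by laser-scanning microplate cytometry.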
# ClpP mod = qHTS Assay for Activators of ClpP; AID 651965, 2013; 340,000 tested, 1.9% active; Potency, µM (titrated, usually from 57.5 µM), for the others: at the top dose activity change, negative = active; purified B. subtilis ClpP, FRET peptide cleavage, 20 min; active = well fitted falling curve with a large enough effect; inconclusive = small, poorly fitted or top-dose-only effect; inactive = no such curve, though single readings can be large or run the other way; further: potency means the concentration at half of the fitted maximal effect; the source files actives as falling curves though it sought activators and does not explain the sign; nearly all actives have a fitted effect of over 65% in size; many hits overshoot -100%
# Target sequence (P80244 whole entry, looked up): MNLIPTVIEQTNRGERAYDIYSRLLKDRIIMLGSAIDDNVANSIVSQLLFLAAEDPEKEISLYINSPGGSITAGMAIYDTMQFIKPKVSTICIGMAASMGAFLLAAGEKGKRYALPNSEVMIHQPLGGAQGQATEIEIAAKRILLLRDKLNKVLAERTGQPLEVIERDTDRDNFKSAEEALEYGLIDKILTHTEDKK
#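 FRET quenching reversal measured ClpP activation: 10 microg/mL B. subtilis ClpP at pH 8 with the FRET-FV decapeptide, read at 430 nm after 320 nm excitation. The 20-min minus 0-min signal was scaled between DMSO/no-enzyme wells and ADEP (5.8 microM final).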
# TRPML1 inh = human mucolipin-1 channel inhibition. Q9GZU1. TRPML1-inducible cells, Ca2+ dye fluorescence, FDSS; stronger effect = lower value; inhibition of EC80 agonist-evoked calcium signal. activity change, negative = inhibition, % (no concentration beside the values). 390,000 tested, 0.02% active; in the data active means activity change below about -50%; inconclusive means about -30% to -50%; inactive means above about -30%;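 further: stimulus is agonist 54-4 at its EC80 concentration; on the % scale 0 is the no-effect control and ±100 the full control effect; compound concentration not given in the record; the text of the record puts the active cut at -80%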
#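 Calcium fluorescence in TRPML1-DL cells induced overnight with Tet: a 110 s read after compound pin addition, then a 110 s antagonist read after challenge with 54-4 at 4 uM final (EC80).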
# Menin-MLL FL inh = inhibitors of human menin-MLL interaction, wild-type MLL peptide; FP activity change, % at 61.4 µM; Fluorescence polarization, fluorescein-MLL peptide displacement from menin; 290,000 tested, under 10 active; inconclusive = falling polarisation curve, or a change in total fluorescence; inactive = total fluorescence flat and polarisation flat or rising; no compound was filed as active; the % refers to the polarisation; negative = inhibition;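 further: % of control where 0% means no effect; inhibitors lower the polarisation; unlabelled MLL peptide was the positive control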
# TRPV1 potentiator = potentiators of human vanilloid receptor 1 (TRPV1); 320,000 tested, 0.02% active; TRPV1-expressing cells, Fluo-8 calcium influx, capsaicin EC20 potentiation; host cell line not named in the record; control for the full effect not named in the record; potentiation, % at 8.33 µM; AID 540277; Q8NER1; active means potentiation above 80%; inconclusive means 30% to 80%; inactive means below 30%; further: 0% is about no effect
# Target sequence (Q8NER1 whole entry, looked up): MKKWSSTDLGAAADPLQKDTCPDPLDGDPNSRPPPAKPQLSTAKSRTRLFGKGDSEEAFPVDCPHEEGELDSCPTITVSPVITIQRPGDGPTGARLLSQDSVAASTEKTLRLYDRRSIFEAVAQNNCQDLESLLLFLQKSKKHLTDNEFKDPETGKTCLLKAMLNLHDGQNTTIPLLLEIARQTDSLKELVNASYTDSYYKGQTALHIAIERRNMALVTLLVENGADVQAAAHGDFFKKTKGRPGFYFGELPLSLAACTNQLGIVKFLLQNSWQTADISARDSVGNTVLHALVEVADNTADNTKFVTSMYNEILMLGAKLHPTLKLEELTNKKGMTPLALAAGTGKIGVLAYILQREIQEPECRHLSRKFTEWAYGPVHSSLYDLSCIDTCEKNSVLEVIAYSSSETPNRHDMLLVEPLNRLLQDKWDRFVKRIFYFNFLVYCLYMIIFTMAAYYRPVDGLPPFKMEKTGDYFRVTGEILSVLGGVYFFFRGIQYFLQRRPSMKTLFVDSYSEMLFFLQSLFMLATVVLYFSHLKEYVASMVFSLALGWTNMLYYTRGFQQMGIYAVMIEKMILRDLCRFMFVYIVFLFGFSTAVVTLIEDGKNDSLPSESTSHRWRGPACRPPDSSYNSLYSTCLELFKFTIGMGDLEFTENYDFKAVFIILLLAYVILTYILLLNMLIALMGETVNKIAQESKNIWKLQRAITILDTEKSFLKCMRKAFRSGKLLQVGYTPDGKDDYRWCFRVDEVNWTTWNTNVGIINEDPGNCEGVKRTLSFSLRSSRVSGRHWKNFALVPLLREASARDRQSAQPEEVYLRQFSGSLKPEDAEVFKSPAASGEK
#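 TRPV1-expressing cells were cultured overnight at 35.5C and loaded with Fluo-8 calcium dye for 40 to 90 min at room temperature. After a 10 s baseline, compound was added and calcium influx was read kinetically for 3 min (ex 480/em 520 nm).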
# * marks the source's active call; other numbers are inactive results; ? = inconclusive; nt = no result given; & = joins results of further samples; [ ] = remark or other dose. Random draw from the library. About 4.4% of those tested had a hit in this group.
SMILES,Sfp inh,TRPML1 agonist,PINK1 modulator,ClpP mod,TRPML1 inh,Menin-MLL FL inh,TRPV1 potentiator
COCCn1c(SCC(=O)c2ccc3c(c2)OCCO3)nnc1-c1ccoc1C,-13%,0.6,0.1%,-3.3%,18,4.5,-14
O=C(NCc1cccs1)C1CCN(S(=O)(=O)c2cccc3nsnc23)CC1,8%,0.5,5.0%,-1.6%,-4,-4.5,nt
CCOc1cc(N2CCOCC2)c(OCC)cc1NC(=O)COC(=O)C1CCCN1S(=O)(=O)c1ccccc1F (centres undefined),nt,-0.3,?,1.1%,2,nt,8
Cn1c(=O)c2c(ncn2CC(=O)Nc2ccc(Cl)cc2Cl)n(C)c1=O,12%,-0.6,0.3%,-2.1%,45,-2.8,4
COc1ccc(-c2ccnc3[nH]n(-c4ccccc4)c(=O)c23)cc1,22%,-1.5&2.1,0.4%&-0.4%,0.2%&-0.4%,-11&9,3.9,-23
c1ccc(Cn2cc(CN3CCCCO3)c(-c3ccc4c(c3)OCO4)n2)cc1,8%,1.6,-0.5%,-1.8%,8,-3.9,-1
COC(=O)CSc1ncc2c(n1)-c1ccccc1N(Cc1cccc(F)c1)S2(=O)=O,nt,1.3,4.6%,?,-3,nt,nt
CC(=O)NS(=O)(=O)c1ccc(NC(=O)CC23CC4CC(CC(Br)(C4)C2)C3)cc1,22%,0.4,0.8%,nt,-4,nt,-2
Cc1ccc(-c2nnc(NCc3nc4ccccc4[nH]3)c3ccccc23)cc1S(=O)(=O)N(C)C,2%,-0.3,?,3.4%,-10,2.8,28
COC(=O)c1cnc2c(c1C(=O)OC)c(=O)n(C)c(=O)n2C,16%,0.5,-0.5%,?,13,nt,-15
CN(C)CCCNc1oc(/C=C/c2ccc(F)cc2)nc1C#N,nt,-0.3,0.9%,4.5%,3,nt,nt
CC1CC(C)CN(CC(=O)N2CCCc3c2c(=O)oc2ccc(OCc4ccccc4)cc32)C1 (centres undefined),?,-0.4,0.0%,-3.0%,6,-1.0,3
COC(=O)C1=C(C)NC(=O)NC1c1ccc2ccccc2c1 (centres undefined),25%,-0.4,0.7%,1.5%,7,2.4,8
O=c1c2ccccc2nnn1CSc1ccc2c(c1)OCCO2,-5%,-0.5,4.0%,1.1%,7,2.2,12
O=C(NCC(=O)N1CCN(c2ccc(C(F)(F)F)cn2)CC1)c1ccc(Br)o1,nt,0.9,-1.2%,-12%,7,nt,0
CC(=O)Nc1ccc(S(=O)(=O)NNC(=O)NC23CC4CC(CC(C4)C2)C3)cc1,-3%,-0.5,-0.8%,-3.7%,4,nt,0
Cc1nc(SCc2cccc(F)c2)[nH]c(=O)c1C#N,19%,3.2,8.5%[38.3 µM],0.3%,7,0.2,-2
COc1cc(/C=C2\SC(=Nc3ccccc3)NC2=O)cc(Cl)c1O,-10%,77*,7.2%,nt,-18,?,-10
Nc1nnc(SCc2cn3cc(Cl)ccc3n2)s1,16%,0.1,1.6%,nt,-14,0.3,-15
CN(CC(=O)Nc1ccc(F)cc1)C(=O)CN1C(=O)c2cccc([N+](=O)[O-])c2C1=O,nt,1.8,0.6%,-1.9%,-9,nt,0
COc1ccc(Cl)cc1NC(=O)CN1c2ccccc2CC1C (centres undefined),0%,-0.5,0.5%,-2.2%,9,1.6,-15
CC1(Cc2ccc(Cl)cc2)C(=O)Nc2ccc(-c3cccnc3)cc21 (centres undefined),nt,-1.0,-0.7%,-4.3%,nt,nt,nt
COc1ccc2[nH]c3c(c2c1)CCN1C(=O)C(CC(=O)NCc2ccco2)C[C@H](C(=O)N2CCOCC2)[C@@]31CCC1CCCC1 (some centres undefined),nt,3.5,-0.1%,2.4%,-2,nt,nt
Cc1cccc(OCC(O)Cn2c(NCCCOC(C)C)nc3c2c(=O)[nH]c(=O)n3C)c1 (centres undefined),-2%,3.4,-0.3%,-1.3%,-28,0.4,-1
Cc1ccc(S(=O)(=O)N(C)C)cc1NC(=O)COC(=O)CCC(=O)c1ccc(F)cc1,8%,-0.6,3.6%,nt,2,6.8,10

# Additional records.
SMILES,Sfp inh,TRPML1 agonist,PINK1 modulator,ClpP mod,TRPML1 inh,Menin-MLL FL inh,TRPV1 potentiator
COc1cc(/C=C2\CCOC2=O)cc(OC)c1OC,9%,-0.1,3.7%,nt,13,0.4,-15
CCOc1ccccc1NC(=O)C(=O)NCCC1=CCCCC1,23%,0.7,5.4%,nt,17,-9.2,-2
CC(Sc1ncnc2sccc12)C(=O)Nc1ccc(C(N)=O)cc1 (centres undefined),10%,1.8,23%,0.5%,-19,-1.6,-3
Cc1ccc(/C=N/NC(=O)c2nnn(-c3nonc3N)c2CN(C)C)s1,4%,-0.4,5.1%,-5.2%,7,nt,-13
COc1ccc(-c2nnn(Cc3ccccc3)n2)cc1OC,1%,0.2,2.0%,nt,-15,-3.4,-11
COc1ccc(OC2C(=O)N(Cc3ccc4c(c3)OCO4)C2c2sccc2C)cc1 (centres undefined),14%,1.1,5.9%[38.3 µM],-0.3%,43,4.6,-9
Nc1c(C(=O)OCC(=O)Nc2cccc([N+](=O)[O-])c2)[nH]c(=O)[nH]c1=O,nt,0.0,0.6%,-19%,5,nt,nt
Cc1nn2c3ccccc3n(CC(=O)c3cccs3)c2nc1=O,11%,-0.4,0.8%,nt,11,-0.8,-8
COc1cc(CN2CCN(c3cccc(Cl)c3)CC2)cc(OC)c1OC,-28%,1.4,6.0%[38.3 µM],-0.4%,-10,-14,7
COc1cnn(-c2ccc(C)cc2)c(=O)c1SCc1ccccc1,2%,1.5,-2.5%,-2.9%,37,2.1,3
CC(C)NC(=S)Nc1ccc(S(=O)(=O)Nc2ncccn2)cc1,6%,0.1,-3.4%,-3.8%,27,7.9,-10
COc1cccc(NC(=O)Nc2ccccc2Br)c1,6%,0.6,4.4%,nt,50,-0.2,-2
Cc1nn(C(C)C(=O)NCCCN(Cc2ccccc2)C(C)C)c(=O)c2c1sc1ccccc12 (centres undefined),15%,1.6,-1.6%,-9.4%,11,2.5,-1
NC(=O)C1(N2CCCCC2)CCN(C(=O)CSc2nc3ccccc3o2)CC1,nt,-0.5,0.6%,-1.8%,-11,nt,nt
COc1cc(-c2nc(SCC(=O)Nc3ccc4c(c3)OCO4)c(-c3ccccc3)[nH]2)cc(OC)c1OC,nt,2.3,-0.9%,-23%,5,nt,nt
Cc1nnc(Cn2cnc3c2c(=O)n(C)c(=O)n3C)o1,-4%,-0.4,1.8%,nt,5,-0.6,-1
CCN(CC)C(=O)[C@H]1CC(CC(=O)NCCc2ccccn2)C(=O)N2CCc3c([nH]c4ccccc34)[C@]12C (some centres undefined),nt,-0.2,0.8%,-3.9%,-3,nt,nt
Cc1cc(C(=O)NNC(=O)c2cccs2)nn1C(C)(C)C,28%,0.4,1.4%,-1.2%,8,nt,-7
CCOc1ccc(CCNC(=O)COC(=O)c2ccc(C)c(S(=O)(=O)N3CCOCC3)c2)cc1OCC,nt,0.7,0.3%,-0.9%,2,nt,nt
CCOC(=O)c1ccccc1NC(=O)CSc1nc2ncccc2o1,nt,0.8,-1.1%,4.4%,-5,nt,nt
C=CCOc1c(CNn2cn[nH]c2=S)cccc1OC,-1%,-0.9,0.1%,nt,-7,-1.1,11
COC(=O)[C@H](CC(C)C)NC(=O)N1CCCCC1C (some centres undefined),6%,1.7,-0.7%,-1.1%,-2,1.2,-2
Fc1cc(Br)ccc1NC(=S)Nc1ccccc1,?,-0.3,16%,28µM*,7,13,19
Cc1ccccc1OCC(O)Cn1c(=N)n(CCN2CCOCC2)c2ccccc21 (centres undefined),-22%&3%,0.4&-0.6,0.0%&0.8%,-4.9%&0.5%,-10&-5,-1.8&-0.2,-9&4
CCn1c(=O)n(CC(=O)NCC2CCCO2)c(=O)c2c3c(sc21)CCCC3 (centres undefined),2%,-1.1,-0.8%,0.1%,17,nt,0

# Additional results:
SMILES,Sfp inh,TRPML1 agonist,PINK1 modulator,ClpP mod,TRPML1 inh,Menin-MLL FL inh,TRPV1 potentiator
Cc1ccc2[nH]cc(CCNC(=O)/C=C/c3ccco3)c2c1,6%,4.7,0.4%,0.4%,9,-2.8,-10
NC(=O)COC(=O)c1cccc(S(=O)(=O)N2CCCc3ccccc32)c1,12%,-0.5,3.1%,-0.4%,7,-0.3,-4
CCOc1ccc(OCCCC(=O)N(C)CC(=O)Nc2ccc(N3CCOCC3)cc2)cc1,nt,-0.1,1.8%,-2.0%,3,nt,12
Cc1cc(C(=O)CCC(=O)NCC2COc3ccccc3O2)c(C)s1 (centres undefined),nt,1.1,-7.3%,0.9%,23,nt,11
Cc1c(C(=O)OCC(=O)N(C)c2ccccc2)oc2ccccc12,7%,1.0,1.5%,-16%,9,6.0,2
O=C(Cn1ccc([N+](=O)[O-])n1)NCC1CCCO1 (centres undefined),12%,-0.3,-0.4%,1.4%,8,nt,2
N#Cc1ccc(OCC(=O)OCC(=O)Nc2sccc2C(N)=O)cc1,nt,2.3,3.1%,-2.6%,19,nt,-6
CC(C)Nc1nc(NC(C)C)nc(C(=O)OCCO)n1,-16%,-0.7,-1.4%,-1.1%,6,-1.6,27
Cc1nnc(NC(=O)CSc2nnc(C)c(=O)n2N)s1,-2%,-0.5,-0.3%,0.2%,5,-4.6,1

# Molecules from the list above containing two or more sulfur atoms (6):
SMILES,Sfp inh,TRPML1 agonist,PINK1 modulator,ClpP mod,TRPML1 inh,Menin-MLL FL inh,TRPV1 potentiator
O=C(NCc1cccs1)C1CCN(S(=O)(=O)c2cccc3nsnc23)CC1,8%,0.5,5.0%,-1.6%,-4,-4.5,nt
COC(=O)CSc1ncc2c(n1)-c1ccccc1N(Cc1cccc(F)c1)S2(=O)=O,nt,1.3,4.6%,?,-3,nt,nt
Nc1nnc(SCc2cn3cc(Cl)ccc3n2)s1,16%,0.1,1.6%,nt,-14,0.3,-15
CC(Sc1ncnc2sccc12)C(=O)Nc1ccc(C(N)=O)cc1 (centres undefined),10%,1.8,23%,0.5%,-19,-1.6,-3
CC(C)NC(=S)Nc1ccc(S(=O)(=O)Nc2ncccn2)cc1,6%,0.1,-3.4%,-3.8%,27,7.9,-10
Cc1nnc(NC(=O)CSc2nnc(C)c(=O)n2N)s1,-2%,-0.5,-0.3%,0.2%,5,-4.6,1
